HPGD inh: HPGD (human) dehydrogenase inhibition; Potency, µM, for inactives: at the top dose activity change, negative = inhibition, hits mostly inhibitors; P15428; purified HPGD, NADH fluorescence kinetic, PGE2 substrate; actives 4.3% (n = 150,000); AID 894; active = well fitted inhibition curve with a large enough effect (not every such curve was filed as active); inconclusive = small, poorly fitted or top-dose-only effect, or another doubt; inactive = no such curve, though single readings can be large or run the other way;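 note: top concentration of the series not given in the record; plate controls included wells without enzyme; inactives centre near -10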
Target sequence (P15428 whole entry, looked up): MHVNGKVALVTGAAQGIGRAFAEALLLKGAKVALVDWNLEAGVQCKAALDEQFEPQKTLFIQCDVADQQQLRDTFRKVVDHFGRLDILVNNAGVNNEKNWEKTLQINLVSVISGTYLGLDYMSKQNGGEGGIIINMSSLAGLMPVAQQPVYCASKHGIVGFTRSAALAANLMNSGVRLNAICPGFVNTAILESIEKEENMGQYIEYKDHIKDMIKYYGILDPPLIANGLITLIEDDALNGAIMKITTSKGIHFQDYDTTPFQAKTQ
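20 nM HPGD preincubated 15 min at room temperature with compound in 50 mM Tris-HCl pH 8, 0.01% Tween 20. Started with 1 mM NAD+ and 30 uM prostaglandin E2; NADH fluorescence (360/450 nm) read 5 times over 30-s intervals, last minus first.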
* hit, by the source's call; ? = inconclusive. % is set by controls: 0 for no effect and ±100 for the full control effect; potency is the fitted concentration of half-maximal effect. An excerpt. The share of hits here may be higher or lower than overall.

SMILES	HPGD inh
Cc1ccc(Nc2nc3nonc3[nH]c2=O)cc1	-23%
COCCn1c(Cc2ccccc2)nnc1SCc1nc2ccccc2c(=O)[nH]1	-5%
Nc1nc(SCc2ccc3c(c2)OCO3)n[nH]1	-5%
C=CCNC(=S)N/N=C/c1ccc(-c2ccc(Br)cc2)o1	-20%
Cc1ccc(C(=O)NCc2ccco2)cc1S(=O)(=O)N1CCOCC1	-12%
CCN1CCN(c2nc3c(c(=O)n(C)c(=O)n3C)n2CCSc2nccc(C)n2)CC1	-6%
O=C(O)CCn1[nH]c(=O)ccc1=O	-11%
O=[N+]([O-])c1ccccc1/C=N/N1CCN(c2ccc(Cl)cc2)CC1	-4%
CCc1ccc2[nH]c(=O)c(C(c3nnnn3CC3CCCO3)N3CCCc4ccccc43)cc2c1 (stereo not drawn)	-23%
Cc1[nH]c(=O)c(C#N)cc1-c1ccc2nccn2c1	?
CCCCn1nc(C(=O)Nc2nc3c(s2)CCCC3)c2ccccc2c1=O	-19%
Cc1ccc(C(=O)NCC(=O)OCC(=O)/C=C2\N(C)c3ccccc3C2(C)C)cc1C	-11%
CCCC1=NCCn2cccc21	-6%
Cc1cccc(NC(=O)c2sc(Cl)nc2C)c1C	-15%
CCOC(=O)c1ccccc1N=N/C(C(C)=O)=C(/C)O	-16%
O=C(CCCC(=O)OCC(Cl)=C(Cl)Cl)Nc1cccc(F)c1	-15%
COC(=O)C(C)(C)ONC(=O)Nc1ccc(Br)cc1	-6%
CC1CCCN(C/C=C/c2ccccc2[N+](=O)[O-])C1 (stereo not drawn)	-5%
CCn1ncc(Br)c1C(=O)Nc1ccc(F)cc1F	-13%
CC1(C)CC(=O)C(C=NCCN2CCN(C(=O)c3ccc(Br)cc3)CC2)=C(O)C1	-8%
O=c1oc2ccccc2cc1-c1nc(-c2ccccc2)no1	-21%
COCCNC(=S)NC1CC2CCCC(C1)N2Cc1cccs1 (stereo not drawn)	-13%
OC[C@@H]1[C@@H](c2ccc(Cl)cc2)C(c2cccc(Cl)c2)=NN1c1ccccc1	?
c1ccc(-n2nnnc2Sc2n[nH]c(-c3ccncc3)n2)cc1	-1%
CCCCC(CC(O)COCC(C)C)C(=O)NNC(=S)Nc1ccccc1 (stereo not drawn)	-21%

The closing seven compounds of the section before come first, to join the parts:
SMILES	HPGD inh
CCn1ncc(Br)c1C(=O)Nc1ccc(F)cc1F	-13%
CC1(C)CC(=O)C(C=NCCN2CCN(C(=O)c3ccc(Br)cc3)CC2)=C(O)C1	-8%
O=c1oc2ccccc2cc1-c1nc(-c2ccccc2)no1	-21%
COCCNC(=S)NC1CC2CCCC(C1)N2Cc1cccs1 (stereo not drawn)	-13%
OC[C@@H]1[C@@H](c2ccc(Cl)cc2)C(c2cccc(Cl)c2)=NN1c1ccccc1	?
c1ccc(-n2nnnc2Sc2n[nH]c(-c3ccncc3)n2)cc1	-1%
CCCCC(CC(O)COCC(C)C)C(=O)NNC(=S)Nc1ccccc1 (stereo not drawn)	-21%
Cc1ccc(NC(=O)CN2CCC(NC(=O)Cc3ccccc3)CC2)cc1C	3%
Cc1[nH]c2ccccc2c1/C=N/Nc1nc(Nc2ccccc2)nc(N2CCOCC2)n1	-18%
O=C(c1ccc(-c2nnc(Nc3cccc(Cl)c3)c3ccccc23)cc1)N1C[C@H]2C[C@H](C1)c1cccc(=O)n1C2	?
O=C(Cc1ccc(F)cc1)N/N=C/c1ccncc1	-4%
C=CCN=C1SCC(=O)N1S(=O)(=O)c1ccccc1	-6%
C[N+]1(CCNC(=O)/C=N/O)CCCCC1	6%
COC(=O)CC(NC(=O)c1ccco1)c1ccc(C(C)C)cc1 (stereo not drawn)	-8%
Cc1ccc(CNC(=O)CS(=O)Cc2nc(-c3ccccc3C)oc2C)cc1 (stereo not drawn)	?
Cc1ccsc1/C=N/Nc1nc2ccccc2s1	?
C/C(=C\C(=O)C(F)(F)F)Nc1cc(C)cc(C)c1	-17%
O=C(O)CCn1c2c(c3ccccc31)CCCC2	-18%
COc1ccc(NC(=O)CSc2ccccn2)cc1OC	-17%
COc1ccccc1CN1C(=O)CCC1(C)C(=O)NC1CCCCCC1 (stereo not drawn)	3%
C/C(Cc1ccccc1)=N\NC(=O)CNC(=O)c1ccc(Br)cc1	1%
COC(=O)c1ccccc1OCCCCN1CC(C)OC(C)C1 (stereo not drawn)	-11%
COCCn1nnnc1C(c1cccs1)N1CCN(c2cccc(C(F)(F)F)c2)CC1 (stereo not drawn)	-1%
Cc1nc2ccccc2nc1OCC(=O)Nc1ccc2ccccc2c1	-12%
O=C(COC(=O)c1ccccc1NC(=O)c1ccco1)Nc1ccc2c(c1)OC(F)(F)O2	?
Cc1cc(C)nc(Sc2c(F)c(F)c(C(F)(F)F)c(F)c2F)n1	-2%
C=C(C)Cn1c(N2CCC(Cc3ccccc3)CC2)nc2c1c(=O)[nH]c(=O)n2C	3%
CCCOP(=O)(OCCC)C1(Nc2ccc(C)cc2)CCCCC1	-4%
CCCCCCCC1CC(CSC(=N)N)OC1=O (stereo not drawn)	2%
COC(=O)c1ccc(NC(=S)N2CCN(Cc3ccc(Cl)cc3)CC2)cc1	40µM*
COc1ccc(N2CC(C(=O)Nc3ccc4c(c3)OCO4)CC2=O)cc1 (stereo not drawn)	-8%
OC(COc1ccccc1)CSc1ncn[nH]1 (stereo not drawn)	-6%

Of the compounds above, 2 contain a nitro group on carbon.
SMILES	HPGD inh
O=[N+]([O-])c1ccccc1/C=N/N1CCN(c2ccc(Cl)cc2)CC1	-4%
CC1CCCN(C/C=C/c2ccccc2[N+](=O)[O-])C1 (stereo not drawn)	-5%

More results
SMILES	HPGD inh
COc1cccc(N2CCN(CC(=O)c3c(C)[nH]c4ccccc34)CC2)c1	-18%
O=[N+]([O-])c1cc(S(=O)(=O)N2CCCC2)ccc1NN=C1CCCCC1	-5%
COc1cc(-c2cc(-c3ccccc3)nc(SCC(=O)Nc3nccs3)c2C#N)cc(OC)c1OC	?
CCCCNC(=O)C(=O)c1ccccc1NC(C)=O	-12%
COc1ccc(-c2cc(C(F)(F)F)nc(SCC(=O)NCc3cnn(C)c3C)n2)cc1OC	?
Cc1ccc(NC(=O)Cn2c(=O)n(CCCC(=O)NCc3ccco3)c(=O)c3ccccc32)cc1	-3%
Cn1c(SCC(=O)N2CCCc3ccccc32)nc2cccnc21	-13%
CCCCNC(=O)c1ccc(Cn2c(=S)[nH]c3c([nH]c4ccc(OC)cc43)c2=O)cc1	-26%
O=C(O)c1ccc(CNCc2ccc(Cl)cc2Cl)cc1	-26%
CC(C)(C)OC(=O)NCCCC1=CC2=CC(=O)C(C)(OC(=O)c3ccc(Cl)nc3)C(=O)C2=CO1 (stereo not drawn)	-8%
COc1ccc(C)cc1NC(=O)CCC(=O)Nc1nnc(C(F)(F)F)s1	-1%
Cn1c(SC(C(=O)Nc2ccc(F)cc2)c2ccccc2)nc2ccccc21 (stereo not drawn)	-10%
COC(=O)/C=C/C(=O)Nc1ccc(O)c(Cl)c1	-13%
CCCC1C2C(=O)N(c3ccc(OC)cc3)C(=O)C2ON1c1ccccc1 (stereo not drawn)	-11%
COc1cc(C=O)ccc1OS(=O)(=O)c1ccccc1[N+](=O)[O-]	18µM*
CC(C)Sc1cc(N2CCCC2)nc(-c2ccccc2)n1	-13%
CC(C)(C)c1ccc(C(=O)NNc2cc(N3CCCCC3)nc(N3CCCCC3)n2)cc1	-16%
O=C(CS(=O)(=O)Cc1ccccc1)Nc1ccccn1	-2%
CCNc1nc(NC(C)C)nc(Oc2ccc(OCc3ccccc3)nn2)n1	-4%
Cc1ccc(NS(=O)(=O)c2ccc(NC(=O)CN(c3cc([N+](=O)[O-])ccc3C)S(C)(=O)=O)cc2)c(C)c1	-5%
c1ccc(Oc2ccccc2)cc1	-3%
CC(=O)Nc1ccc(S(=O)(=O)Nc2nc3c(s2)CCCC3)cc1	-13%
CC(=O)Nc1ccc(S(=O)(=O)N(Cc2ccco2)CC2CCCO2)cc1 (stereo not drawn)	-24%
CCC1=C2CC[C@H]3C(=O)N(c4ccccc4)C(=O)[C@H]3[C@H]2[C@@]2(C)C(=NCC3CC3)OC(=O)N2C1=O	-14%
CCOc1ccc(/C=N/NC(=O)CC(=O)Nc2ccc(Cl)c(Cl)c2)cc1	-11%

(continued)
SMILES	HPGD inh
Cc1ccc(Cn2ccc(NC(=O)c3cc(CC(C)C)on3)n2)cc1	-11%
Cc1nonc1C(=O)N/N=C/c1cccc(O)c1	-19%
Cn1c(SCC(=O)N2CCCC2)nc2ccccc2c1=O	-12%
COc1cc(/C=C/C2=NC(=O)C(C)(C)O2)ccc1O	-25%
Cc1cc(C)c2[nH]c(=O)c(=O)[nH]c2c1	-25%
Cc1cc(C)c(/C=N/NC(N)=O)c(C)c1/C=N/NC(N)=O	-13%
FC(F)(F)c1cc(C(F)(F)F)c2ccc(Oc3ccccc3)nc2n1	-19%
O=C(COc1ccccc1)Nc1ccc(OC(F)(F)C(F)F)c(NC(=O)COc2ccccc2)c1	3%
CCCCn1c(CCNC(=O)CCC)nc2ccccc21	-1%
Cc1ccc(S(=O)(=O)N/N=C/c2cccc(OC3CSC3)c2)cc1	-15%
COc1ccc(NS(=O)(=O)c2cc(NC(=O)CNC(=O)c3ccc(C)s3)ccc2Cl)cc1	-23%
O=C(c1cc([N+](=O)[O-])cc([N+](=O)[O-])c1)N(c1ccccn1)c1ccccn1	-1%
COc1ccc(C2=NN(C)C(=NCc3ccccc3)SC2)cc1	-4%
COc1ccc(C2C(C#N)=C(N)N(c3sc4c(c3C#N)CCCC4)C3=C2C(=O)CC(C)(C)C3)cc1 (stereo not drawn)	?
CCOC(=O)c1cnc2cc(Cl)c(OC)cc2c1NCC1CCCO1 (stereo not drawn)	-23%
O=C(Oc1c(Br)cc(C(=S)N2CCOCC2)cc1Br)c1ccc(Cl)cc1	16µM*
CCOC(=O)NC1(NC(C)C)Oc2ccccc2O1	-11%
CC(C)(C)OC(=O)NCCc1nnc(SCc2ccccc2Cl)o1	-8%
Cc1ccccc1OCC(=O)Nn1c(COc2ccccc2)nc2ccccc2c1=O	-9%
O=C(Nc1cccc(C(F)(F)F)c1)c1cc2c(s1)-c1ccccc1OC2	?
CS/C(N)=N/N=C/c1ccc([N+](=O)[O-])cc1	-21%
Cc1cccc(NC(=O)Nc2ccc(C#N)cc2)n1	-9%
O=C1N(c2ccccc2)C2CS(=O)(=O)CC2N1c1ccc(Cl)c(Cl)c1 (stereo not drawn)	4%
CCC(Sc1ncccc1C(=O)OCCN1CCCC1=O)C(=O)NCc1ccco1 (stereo not drawn)	-18%
COc1ccc(-c2coc3cc4oc(=O)cc(-c5ccccc5)c4cc23)cc1F	?

(listing goes on)
SMILES	HPGD inh
COc1ccc(C(=O)Nc2c(N)nc(SCC(=O)N3CCC(C)CC3)[nH]c2=O)cc1OC	-16%
c1ccc(NCCCNc2ccccc2)cc1	-4%
O=C(Cc1ccccc1)N1CCN(C(=O)c2cccs2)CC1	-10%
Cc1ccc(Oc2nnc(-c3ccccc3)c3ccccc23)cc1	-16%
OCCNc1nc(OCC(F)(F)F)nc(N2CCN(C34CC5CC(CC(C5)C3)C4)CC2)n1	-8%
COc1ccc(/C(C)=N/Nc2ccc(C(=O)O)cc2)c(OC)c1	-20%
Cn1cc(CNC(=O)Nc2ccc3c(c2)OCO3)cn1	-4%
CCn1c(C)nc2cc(C(=O)N/N=C/c3ccc(O)cc3)ccc21	-5%
Cc1cc(-c2nnc(SCC(=O)c3ccc4c(c3)OCCO4)o2)no1	-14%
COC(=O)c1sc(NC(=O)c2cc(-c3ccccc3)nc3ccccc23)c(C#N)c1C	3.5µM*
O=C(c1ccc(S(=O)(=O)Nc2ccccc2)cc1)N1CCOCC1	-9%
CCC(=O)OC1CCC2C3CCc4cc(O)ccc4C3CC[C@]12C (stereo partly drawn)	-26%
CCCn1nnnc1NCc1ccccc1OCc1ccc(F)cc1	-8%
CC(=O)C1=C(C)NC(C)=C(C(C)=O)C1c1ccc(-c2ccccc2Cl)o1	-10%
COc1cccc(C(=O)NCCC2=CCCCC2)c1OC	-29%
CC(C)NS(=O)(=O)c1ccc(OCC(=O)Nc2ccc(F)cc2F)cc1	-10%
COc1ccccc1CCC(=O)Nc1nc2ccccc2[nH]1	-8%
Cc1ccc2nc(SCC(=O)Nc3ccc4c(c3)OCCO4)[nH]c2c1	-4%
CC(NC(=O)CSc1nc2ccccc2n1CCC#N)c1ccc(F)cc1 (stereo not drawn)	-8%
Cn1c(COc2ccccc2)nnc1SCCC(=O)Nc1ccccc1	-4%
Cc1cc(/C=N/NC(=O)C(=O)NCc2ccccn2)c(C)n1-c1ccccc1	2%
S=c1[nH]nc(-c2ccccn2)n1/N=C/c1cccs1	-19%
CC(NS(=O)(=O)c1ccc(Br)cc1)C(N)=O (stereo not drawn)	1%
Cc1ccc(S(=O)(=O)N2CCN(C3CC(=O)N(Cc4ccccc4)C3=O)CC2)cc1C (stereo not drawn)	1%
COc1cccc2cc(-c3nnc(SCC(=O)Nc4cc(C(F)(F)F)ccc4Cl)n3N)oc12	?

Next results:
SMILES	HPGD inh
CCCC(=O)NCCc1ccc(F)cc1	?
CC(=O)c1cccc(NC(=O)NCc2cccnc2)c1	-13%
Cc1cc(C)nc(SCC(=O)Nc2nc(-c3ccccc3)c(-c3ccccc3)o2)n1	-12%
O=c1[nH]c(CSc2ncccn2)nc2c1cnn2-c1ccccc1	-22%
COc1ccc(OC)c(N2C(=O)C(Cl)=C(N3CCCCC3)C2=O)c1	-14%
COc1ccc2oc(=N)c(C(=O)Nc3ccccc3)cc2c1	-12%

5 entries from above in a different format.
molecule | HPGD inh
Cc1cccc(NC(=O)Nc2ccc(C#N)cc2)n1 | -9%
O=C1N(c2ccccc2)C2CS(=O)(=O)CC2N1c1ccc(Cl)c(Cl)c1 (stereo not drawn) | 4%
CCC(Sc1ncccc1C(=O)OCCN1CCCC1=O)C(=O)NCc1ccco1 (stereo not drawn) | -18%
COc1ccc(-c2coc3cc4oc(=O)cc(-c5ccccc5)c4cc23)cc1F | ?
COc1ccc(C(=O)Nc2c(N)nc(SCC(=O)N3CCC(C)CC3)[nH]c2=O)cc1OC | -16%

High-throughput results: PubChem BioAssay, National Center for Advancing Translational Sciences (NCATS)
